Bioassay records as filed in PubChem BioAssay.
Sa growth inh = inhibitors of Staphylococcus aureus growth at 42 °C; S. aureus RN4220 growth, OD600, 20 h; hits give low values; relative growth, % (concentration not given with the values); hit rate 0.53% among 170,000; AID 720641;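 active means growth at 42 °C up to 50% and 20 or more points under that at 30 °C, or under 10% at both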;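 further: 300 nL library stock went into each well; scaled to the means of positive and negative controls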
GIV Gai3 FP = blocks GIV peptide binding to rat Galpha-i3. P08753. Galpha-i3/FITC-GIV peptide fluorescence polarization, 90 min; hits give low values; scaled: aluminum fluoride 0%, vehicle 100%. percent of control (FP), % (test concentration not listed). hit rate 0.42% among 210,000;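 active means replicate mean at 85% of control or lower, very high polarization wells dropped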;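 further: wells of about 15 µL received 100 nL stock; the first replicate is given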
Target sequence (P08753 whole entry, looked up): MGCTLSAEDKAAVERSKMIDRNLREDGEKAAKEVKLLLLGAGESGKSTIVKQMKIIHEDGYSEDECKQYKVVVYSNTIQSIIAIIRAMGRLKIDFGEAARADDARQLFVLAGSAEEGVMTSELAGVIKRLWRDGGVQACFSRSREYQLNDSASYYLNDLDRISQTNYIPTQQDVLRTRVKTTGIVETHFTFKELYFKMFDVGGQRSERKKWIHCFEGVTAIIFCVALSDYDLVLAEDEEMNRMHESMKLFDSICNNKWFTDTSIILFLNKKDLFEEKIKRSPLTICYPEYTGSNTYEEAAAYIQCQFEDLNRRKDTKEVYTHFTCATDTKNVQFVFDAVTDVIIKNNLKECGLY
HCMV UL50-53 inh = inhibitors of HCMV UL50-UL53 nuclear egress complex interaction | HTRF UL50-UL53 interaction, normalized percent inhibition | inhibition, % (test concentration not listed) | hit rate 0.15% among 190,000;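 active means both replicates at 50% or more, plus weaker picks with an unusually low signal ratio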;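 further: stock transfer was 100 nL into about 20 µL; 0% = negative control wells and 100% = wells with untagged competitor protein; inactives centre near -12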
Sa growth inh second temp = further read-out of Sa growth inh, marked with its call; relative growth, %; measured here: growth at 30 °C;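 optical density after 20 h as mean of two plates; 100% = untreated growth and lower means inhibition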
An asterisk follows results filed as active; . = no result given.

SMILES | Sa growth inh | Sa growth inh second temp | GIV Gai3 FP | HCMV UL50-53 inh
COc1ccc(C(=O)Nc2ccc(-c3cc4ccccc4oc3=O)c(C)c2)cc1OC | 102 | 93 | 102 | -6
Cc1[nH]c2ccc(-c3nnc(SCC(=O)N4CCCC4)o3)cc2c1C | 122 | 92 | 98 | -23
Cc1cc(C)cc(N(CC(=O)NCCc2ccc(Cl)cc2)S(=O)(=O)c2c(C)noc2C)c1 | 109 | 89 | 106 | -19
Cc1ccc(-c2nc3c4c(C)c(C)n(Cc5cccnc5)c4ncn3n2)cc1 | . | . | 107 | -7
CCCCCC1CC(O)C=C(C)C1C(=O)OC (stereo unspecified) | 101 | 99 | 97 | -21
O=S(=O)(Cc1ccc(Cl)cc1)c1ccc(NC2CC2)nn1 | . | . | 100 | -26
CCc1nnc(SCc2ccc(OC)cc2)c2cc3sc(C)cc3n12 | 118 | 89 | 105 | .
CCCCn1cnc2cc(NC(=O)c3cc(OC)c(OC)c(OC)c3)ccc21 | 88 | 89 | 96 | 15
Cc1c(C)n(-c2ccc(F)c(F)c2)c2ncnc(Nc3cc(F)ccc3F)c12 | . | . | 105 | -29
Cc1cc(C)cc(N2C(=O)/C(=C\c3ccc(N4CCCCC4)cc3)C(=O)NC2=S)c1 | 110 | 75 | 110 | .
COc1cc(SC)ccc1C(=O)Nc1ccc(S(=O)(=O)Nc2nccc(C)n2)cc1 | 109 | 90 | 95 | .
CCS(=O)(=O)c1ccc(OC)c(-n2c(O)c[nH]c2=O)c1 | 78 | 85 | 98 | -12
O=C1CN(S(=O)(=O)c2ccc(F)cc2)CCN1 | 106 | 97 | . | 15
CN(Cc1nc(-c2ccccc2)cs1)C(=O)NC1(c2ccccc2)CC1 | 103 | 87 | . | 2
Cc1cc(C)cc(NC(=O)CSCc2cnn(-c3ccccc3)c2-n2cccc2)c1 | 118 | 91 | 103 | .
C=C(C)CS(=O)(=O)c1ccccc1 | 78 | 105 | . | 13
COCc1ccc2oc(C(=O)O)cc2c1 | 107 | 92 | 99 | .
COCc1cc(C)nc2sc3c(c12)NC(c1ccccc1C(=O)O)N(c1cccc(C(F)(F)F)c1)C3=O (stereo unspecified) | 91 | 95 | 104 | -10
CCOC(=O)C(C)Sc1ncnc2c1oc1ccccc12 (stereo unspecified) | 100 | 76 | 101 | .
CC(C)(C)C1CCc2c(sc(NC(=O)c3cccc(Cl)c3)c2C(N)=O)C1 (stereo unspecified) | 101 | 93 | 109 | -7
c1nc(N2CCCC2)c2c3c(sc2n1)CCC3 | 74 | 89 | 101 | -43
CCOC(=O)c1c(C)n(-c2ccc(OC)cc2)c2ccc(OC(=O)C#Cc3ccccc3)cc12 | . | . | 103 | 2
CCOc1ccc2nc(N3CCCC(C(=O)NCCc4ccc(C)cc4)C3)sc2c1 (stereo unspecified) | 118 | 89 | 104 | -17
C=CCn1c(Cc2cccs2)nnc1SCC(=O)Nc1ccc(C)c(C)c1 | 118 | 94 | 105 | -14
CCC1Cc2c(nc(N)c3c(N)nc(N(CC)CC)c(C#N)c23)O1 (stereo unspecified) | 83 | 110 | . | 9
CCOc1ccc(Cn2c(=O)c3sccc3n3c(SCc4ccc(F)cc4)nnc23)cc1OCC | . | . | 99 | -12
NNc1ncnc2cc(-c3ccc(Br)cc3)sc12 | 110 | 84 | . | -24
CCOC(=O)c1ccccc1NC(=O)N1CC(C)Oc2ccc(C)cc21 (stereo unspecified) | 72 | 77 | 104 | 3
O=C1NC2(CCCCC2)N(C(=O)c2cccs2)C2=C1CCCC2 | 92 | 87 | 100 | -14
CCOC(=O)CNC(=O)c1cc(-c2ccc(Cl)c(Cl)c2)nc2ccccc12 | . | . | 102 | -18
COc1cccc(-c2nc(CS(=O)(=O)CC(=O)NCCCc3ccccc3)c(C)o2)c1 | 104 | 89 | 103 | 10
CC(C)c1ccc(C2=CC(c3cccc(Cl)c3)n3ncnc3N2)cc1 (stereo unspecified) | 77 | 47 | 104 | .
CCCn1c(=S)[nH]c2cnn(C)c2c1=O | 71 | 60 | 105 | -14
O=C(c1sc2cc(F)ccc2c1Cl)N1CCN(c2ccc(F)cc2)CC1 | . | . | 105 | -5
N#Cc1cccc(Cn2nnc(-c3ccccc3)n2)c1 | 109 | 100 | 103 | -12
COc1ccc(-c2nn3c(CSc4ccccc4)nnc3s2)cc1 | . | . | 109 | -12
COc1ccc(-c2noc(CSc3nc4c(-c5ccccc5)c[nH]c4c(=O)[nH]3)n2)cc1OC | . | . | 106 | -1
O=C(NCCc1ccccc1)C1CCCN(c2nc3ccccc3n3cccc23)C1 (stereo unspecified) | . | . | 104 | -1
CCc1nc2ccccc2n2c(-c3ccccc3)c3c(=O)n(C)c(=O)n(C)c3c12 | 106 | 90 | 101 | -31
CC1CSc2ccc(S(=O)(=O)N3CCOCC3)cc2N(CC(=O)N2CCc3ccccc32)C1=O (stereo unspecified) | . | . | 99 | -16

Four compounds drawn at random from those above, as already listed:
SMILES | Sa growth inh | Sa growth inh second temp | GIV Gai3 FP | HCMV UL50-53 inh
c1nc(N2CCCC2)c2c3c(sc2n1)CCC3 | 74 | 89 | 101 | -43
O=C(NCCc1ccccc1)C1CCCN(c2nc3ccccc3n3cccc23)C1 (stereo unspecified) | . | . | 104 | -1
O=C1NC2(CCCCC2)N(C(=O)c2cccs2)C2=C1CCCC2 | 92 | 87 | 100 | -14
CC(C)c1ccc(C2=CC(c3cccc(Cl)c3)n3ncnc3N2)cc1 (stereo unspecified) | 77 | 47 | 104 | .

Going on with the list:
SMILES | Sa growth inh | Sa growth inh second temp | GIV Gai3 FP | HCMV UL50-53 inh
CCCCNC(=O)c1cccc(Nc2ccc(-c3ccc(F)cc3)nn2)c1 | . | . | 108 | -36
CC(C)n1c(C(F)(F)F)nc2ccccc21 | 94 | 91 | . | -6
CC(Sc1ccccc1)C(=O)Nc1ccc(CC#N)cc1 (stereo unspecified) | 99 | 94 | . | -5
CC1CCN(C(=O)C2c3ccccc3Oc3ccccc32)CC1 | 92 | 87 | 102 | .
O=C(Cc1ccccc1)Oc1ccc(N=Cc2cccs2)cc1 | 95 | 85 | . | -21
COC(=O)c1ccc(Oc2nc(N3CCCCC3)nc(N3CCCCC3)n2)cc1 | 78 | 84 | 96 | -8
COc1ccc(NC(=O)c2cc3c(=O)n(C)c4cc(Cl)ccc4c3s2)cc1Cl | 78 | 83 | 100 | .
CCCN1CCN(C(=O)c2oc(=O)c3ccccc3c2-c2ccccc2)CC1 | 121 | 99 | 95 | 3
Nc1nc2c(nc(Br)n2C2OC3COP(=O)(O)O[C@@H]3C2O)c(=O)[nH]1 (stereo partly specified) | . | . | 102 | -11
COc1ccc(C(=O)NCc2ccc3c(c2)CCO3)cc1 | 101 | 86 | 107 | -41
Cc1cc(C)cc(OCC(=O)Nc2nc(-c3ccc(F)cc3)ns2)c1 | 98 | 87 | 96 | -30
Cc1ccc(OCCOc2ccc(Cl)cc2C=C2C(=O)NC(=S)NC2=O)cc1 | . | . | 92 | -18
O=C(CCN1C(=O)c2cccnc2Sc2ccccc21)NCc1ccc2c(c1)OCO2 | 107 | 96 | 111 | -4
COc1cccc(OC)c1C(=O)Nc1ccc(S(=O)(=O)Nc2nccs2)cc1 | . | . | 91 | 43
CCCCCn1c(=O)c2ccccc2n2c(Cn3cc(S(=O)(=O)N4CCCC4)ccc3=O)nnc12 | 79 | 95 | . | -6
O=C(CSc1nc(-c2cccc(F)c2)[nH]c1-c1ccccc1)Nc1ccc2c(c1)OCO2 | 106 | 67 | 102 | -10
CCOC(=O)C1CC2CN(C(=O)c3ccccc3)CC(C1)C2=O (stereo unspecified) | 76 | 95 | . | 0
COCCNC(=O)N1Cc2c(C)nn(-c3ccccc3)c2-n2cccc2C1c1ccc(F)cc1 (stereo unspecified) | . | . | 99 | -21
O=c1oc(CCCCc2nc3sc4c(c3c(=O)o2)CCCC4)nc2sc3c(c12)CCCC3 | . | . | 114 | 0
O=C(O)c1ccc(Cn2nc(N3CCCCC3)ccc2=O)o1 | 85 | 95 | 105 | .
COc1cccc2cc(C(C)O)oc12 (stereo unspecified) | . | . | 98 | -6
CCC(C)(C)NC(=O)c1cccc(NC(=O)C(C)C)c1 | 99 | 102 | 95 | 12
Cc1ccc(N2CCn3c2nc2c3c(=O)n(CCc3ccccc3)c(=O)n2C)cc1C | 124 | 95 | 97 | .
CCOC(=O)N/N=C/c1cn(-c2ccccc2)nc1-c1cc2ccccc2o1 | 128 | 72 | . | -8
COc1ccc(-c2nc3ccccc3n2Cc2ccc(Cl)cc2)cc1 | 84 | 64 | 104 | 3
Cn1nnc(-c2ccc(OCc3ccccc3F)cc2)n1 | 114 | 89 | 107 | .
Cc1cc(=O)oc2cc(OC(=O)C(C)C)ccc12 | 96 | 75 | 102 | -20
O=c1c2ccccc2c2n[nH]c(O)c3ccc(=NC4CCCCC4)c1c32 | 97 | 82 | 124 | .
Cc1ccc(C(=O)CSc2nc(-c3ccccc3)nc3c2CCCC3)cc1C | 96 | 93 | 110 | -25
CC(C1CC2CCC1C2)n1c(SCC(=O)c2ccc[nH]2)nnc1-c1ccco1 (stereo unspecified) | 64 | 58 | . | -36
Cc1ccnc(N2C(=O)c3ccccc3C2Nc2ccc(Br)c(C)c2)c1 (stereo unspecified) | 92 | 97 | 99 | .
CC(C)C(=O)N(C)Cc1cc2ccccc2[nH]c1=O | 92 | 92 | 102 | -10
CCOC(=O)C1=C(CS(=O)(=O)c2ccccc2)NC(=O)NC1c1ccc(SC)cc1 (stereo unspecified) | 98 | 85 | 95 | .
CN1C(=O)/C(=C2\SC(=S)N(NC(=O)c3ccccc3Cl)C2=O)c2ccccc21 | . | . | 104 | -13
Cc1cc2c(cc1C)N(CC(=O)Nc1cc(F)ccc1F)C(=O)C1CCCC1=N2 (stereo unspecified) | . | . | 113 | -10
CCN(C(=O)Cn1nc(Cc2ccncc2)c2ccccc2c1=O)c1cccc(C(F)(F)F)c1 | 104 | 84 | 103 | -42
CCC(=O)N1CCc2cc(S(=O)(=O)NCCC(=O)Nc3ccc(Br)cc3C)ccc21 | 110 | 84 | 98 | .
O=C(c1cccs1)N1CCCc2cc(NS(=O)(=O)c3ccc(Cl)cc3)ccc21 | 66 | 42 | 98 | .
O=C(O)CCN1CCCC1 | 99 | 87 | 101 | -2
Cc1[nH]c(=O)c(C#N)c(C)c1CCC(=O)N(C)CC(=O)Nc1ccc(Cl)c(Cl)c1 | 107 | 89 | . | -24

Part of the list above, set out differently.
Every second line gives: Sa growth inh | Sa growth inh second temp | GIV Gai3 FP | HCMV UL50-53 inh
CCOC(=O)N/N=C/c1cn(-c2ccccc2)nc1-c1cc2ccccc2o1
    128 | 72 | . | -8
COc1ccc(-c2nc3ccccc3n2Cc2ccc(Cl)cc2)cc1
    84 | 64 | 104 | 3
Cn1nnc(-c2ccc(OCc3ccccc3F)cc2)n1
    114 | 89 | 107 | .
Cc1cc(=O)oc2cc(OC(=O)C(C)C)ccc12
    96 | 75 | 102 | -20
O=c1c2ccccc2c2n[nH]c(O)c3ccc(=NC4CCCCC4)c1c32
    97 | 82 | 124 | .

More structures follow.
SMILES | Sa growth inh | Sa growth inh second temp | GIV Gai3 FP | HCMV UL50-53 inh
O=C(O)CCC(=O)c1ccc(Cl)s1 | 112 | 91 | . | -25
O=C(NC1(c2ccccc2)CC1)c1ccccc1 | 103 | 76 | 96 | -20
COC(=O)c1sccc1NC(=O)/C=C/c1cccs1 | 85 | 91 | . | -28
CCCC(C(=O)Nc1cc(OC)cc(OC)c1)N1Cc2ccccc2C1=O (stereo unspecified) | . | . | 109 | 0
Cc1ccc(-c2cc3c(SCC(N)=O)nccn3n2)cc1 | . | . | 100 | 1
COc1ccc(-c2nnc(NC(=O)CC(C)C)s2)cc1 | 104 | 86 | . | 27
COC(=O)c1nc2c(C)cccn2c1F | 98 | 101 | 101 | -16
Cc1ccc(C)c(C2CC(=O)Nc3c2c(C)nn3-c2ccc3nncn3n2)c1 (stereo unspecified) | . | . | 104 | 9
CCN(CC)C(=O)NCc1ccccn1 | 118 | 94 | 107 | -32
Cc1ccccc1Nc1nc(N)nc(CSCc2c(C)noc2C)n1 | 97 | 89 | . | -6
CCN(C(=O)/C=C/c1ccccc1)c1ccccc1 | 110 | 127 | 107 | -12
CCOC(=O)c1ccc(N2C(=O)c3n[nH]c(-c4cccs4)c3C2c2ccc(OC)cc2OC)cc1 (stereo unspecified) | 101 | 93 | 103 | -4
OCC1OC(Sc2ccccc2)C(O)C(O)C1O (stereo unspecified) | 91 | 86 | 98 | -10
Cc1ccc2oc(-c3nnc(C(=O)NCCN4CCCC4)o3)c(C)c2c1 | . | . | 104 | -54
CN(C)c1ccc(NC(=O)CSc2nc3ccsc3c(=O)n2CCCCCC(=O)O)cc1 | 89 | 84 | 102 | .
CCCc1nnc2n1NC(c1ccc(CC)cc1)C(C(=O)Nc1cc(C)cc(C)c1)S2 (stereo unspecified) | . | . | 106 | -16
N#Cc1ncc(C(F)(F)F)cc1OCc1ccccc1Cl | . | . | 107 | -19
CC(C)(C)C(=O)CSc1nc2ccccc2c(=O)n1-c1ccc(F)cc1F | 92 | 93 | . | 2
Cc1cccc2oc3cc(Nc4ccccc4)c4c(=O)c5ccccc5c(=O)c4c3[nH]c12 | . | . | 104 | -8
Cc1c(Cl)cccc1NC(=O)Cn1cnc(S(=O)(=O)N2CCCC2)c1 | 95 | 91 | 98 | .
